# GIRK2 act = activators of human GIRK2 potassium channels | G protein-activated inward rectifier potassium channel 2 (Homo sapiens), P48051 | HEK293-GIRK2 thallium flux, Thallos fluorescence | calls only for hits at 25 µM | 63,000 compounds, 0.05% hits | AID 1259325, 2017;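 active = among the strongest 0.2% of first-round signals and kept after retests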;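 also: first round at about 10 µM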
# Target sequence (P48051 whole entry, looked up): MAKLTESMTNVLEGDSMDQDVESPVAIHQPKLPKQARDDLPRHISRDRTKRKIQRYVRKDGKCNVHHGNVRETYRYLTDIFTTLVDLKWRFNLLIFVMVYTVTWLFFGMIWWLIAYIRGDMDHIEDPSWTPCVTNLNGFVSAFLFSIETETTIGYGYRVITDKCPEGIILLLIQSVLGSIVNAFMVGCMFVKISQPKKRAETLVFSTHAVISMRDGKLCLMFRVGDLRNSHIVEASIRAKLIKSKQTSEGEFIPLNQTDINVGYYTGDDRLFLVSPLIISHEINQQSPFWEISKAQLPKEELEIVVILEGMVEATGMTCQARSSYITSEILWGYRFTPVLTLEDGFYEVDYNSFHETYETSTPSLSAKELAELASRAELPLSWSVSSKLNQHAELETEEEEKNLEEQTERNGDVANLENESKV
# Calls only; i = inactive. A portion of the library, so the mix of outcomes need not match the whole.
SMILES,GIRK2 act
COc1cccc(C(=O)N2CCC3(CC2)NC(=O)c2cc(C)ccc2N3C)c1,i
COc1ccccc1CNC(=O)C(=O)NCCC1CCCCN1S(=O)(=O)c1cc(C)ccc1C (centres undefined),i
CC(C)CNC(=O)CCc1csc2nc(-c3ccc(Cl)cc3)cn12,i
O=C(NC1CCCCCC1)C1CCCN(c2nc3c(-c4ccccc4)csc3c(=O)[nH]2)C1 (centres undefined),i
O=C(COc1ccccc1)N1CCCC(c2nnc(-c3cccs3)o2)C1 (centres undefined),i
O=C(NC1CC1)c1nnn(-c2ccc(NC(=O)c3ccc(F)cc3F)cc2)n1,i
CCOc1ccccc1CN1C(=O)C(O)(CC(C)=O)c2c(Cl)ccc(Cl)c21 (centres undefined),i
Cc1c(CNC(=O)c2ccccc2C(F)(F)F)sc2nc(-c3ccc(F)cc3)cn12,i
COc1ccc(NC(=O)CSc2ccc(N3CCCCCC3)nn2)cc1Cl,i
COc1ccc(CC(=O)Nc2nnc(-c3cc4cccc(OC)c4o3)o2)cc1,i
CC(=O)O[C@@H]1C[C@@H](C)[C@](O)(CCC2=CC(=O)OC2)[C@@]2(C)CCCC(C)(C)C12 (some centres undefined),i
Cn1c(=O)c2c(nc(N3CCN(Cc4ccccc4)CC3)n2CC(=O)c2ccccc2)n(C)c1=O,i
COCCN(Cc1ccsc1)C(=O)Nc1ccc2c(c1)OCO2,i
CN(C)CC1COCCN1C(=O)c1ccc(Cl)cc1Cl (centres undefined),i
C=CCn1c(=O)c2c(nc(N/N=C\c3cccc(OC)c3)n2C)n(C)c1=O,i
Cc1ccccc1-c1ccc(N2CCN(C(=O)C3CCN(S(C)(=O)=O)CC3)CC2)nn1,i
Cc1noc(C)c1S(=O)(=O)N1CCN(Cc2nc3ccccc3n2C)CC1,i
O=C(CSc1nnc2ccc3ccccc3n12)c1ccc(Cl)c(Cl)c1,i
COc1ccc(OC)c(/C=C2\Oc3cc(OCC(C)=O)ccc3C2=O)c1,i
COc1ccc(N2C(=O)C3N=NN(CC(=O)Nc4ccc(Cl)cc4Cl)C3C2=O)cc1 (centres undefined),i
COc1ccc(OCc2noc(CNC(=O)c3cccc(N(C)C)c3)n2)cc1,i
COC(=O)c1sccc1S(=O)(=O)N(CC(=O)Nc1ccc(Cl)cc1)c1ccc(C)c(C)c1,i
COc1cccc(NC(=O)Cn2c(=O)nc(-c3ccccc3F)c3cc(Cl)ccc32)c1,i
COc1nn(C)cc1C(=O)N1CCC(Oc2cnccn2)CC1,i
Cc1nn2c(N3CCOCC3)cc(C(C)(C)C)nc2c1-c1ccc(Cl)cc1,i
Cc1cc(C)nc(Nc2nc(CC(=O)Nc3ccc(C(N)=O)cc3)cs2)n1,i
COc1ccc(-c2noc(C3CCN(CC(=O)Nc4cccc(Cl)c4)CC3)n2)cc1,i
O=C(Nc1cc(Cl)ccc1O)c1nnn(-c2ccc(OC(F)(F)F)cc2)n1,i
CCS(=O)(=O)c1ccc(C(=O)Nc2ccc(SC)cc2)cc1,i
CCCCNC(=O)c1ccc(-n2ccnc2SCC(=O)Nc2cc(OCC)ccc2OCC)cc1,i
COCCN(Cc1ccoc1)S(=O)(=O)c1cc(C)c(C)cc1C,i
CSc1cccc(-c2nnc(NC(=O)NCc3cccs3)o2)c1,i
O=C(CCCc1ccccc1)N(Cc1ccoc1)Cc1cccs1,i
CCOC(=O)CCn1c(=O)c2c(nc3n(-c4ccc(C)c(C)c4)c(C)c(C)n23)n(C)c1=O,i
Cn1c(=O)c(Oc2ccc(F)cc2F)cc2cnc(NCC(C)(C)O)nc21,i
CCOCCn1c(=O)c2c(nc3n2CCN3c2cc(Cl)ccc2OC)n(C)c1=O,i
CC(C)c1ccc(OCC(=O)Nc2ccc(S(=O)(=O)N3CCN(c4cnccn4)CC3)cc2)cc1,i
O=C(Cn1nc2c(c1NC(=O)c1ccco1)CSC2)NCCc1ccccc1,i
COc1ccc(NC(=O)C(=O)NCC(C)(O)c2ccco2)cc1Cl (centres undefined),i
CC(C)NC(=O)Nc1cc(OCc2ccccc2)ncn1,i
COc1ccc(-c2nc(Cn3nnc(C(=O)Nc4cccc(C)c4C)c3C)c(C)o2)c(OC)c1,i
Cc1nc(C)c(CNS(=O)(=O)c2ccc(F)c(C(F)(F)F)c2)s1,i
COc1ccc(NC(=O)c2nc(-c3cn(-c4ccc(F)cc4)nn3)no2)cc1,i
O=C(Cc1cccc2ccccc12)Nc1ccc(-n2nnc(C(=O)NC3CC3)n2)cc1,i
COc1cc(C(=O)NCc2ccc(OC(F)(F)F)cc2)on1,i
Cc1ccc(-c2noc(C3CCN(CC(=O)Nc4cccc(C)c4)CC3)n2)cc1,i
COc1ccccc1C(=O)Nc1cnc(-n2ccnc2)nc1,i
CC(Oc1ccccc1)C(=O)NCCC(O)c1cccc2ccccc12 (centres undefined),i
CC(C)C(=O)N1CCCc2ccc(NC(=O)C(=O)NCCc3ccoc3)cc21,i
Cc1ccc(C)c(N2CCN(C(=O)c3nnn(-c4ccc(OC(F)(F)F)cc4)n3)CC2)c1,i
CC(C)S(=O)(=O)c1ccc(CC(=O)Nc2ccccc2NC(=O)c2ccccc2Cl)cc1,i
Cc1ccccc1NC(=O)Cn1c(C)cc(C)c(-c2nc(-c3ccc4c(c3)OCO4)no2)c1=O,i
Cc1cc(C)c(S(=O)(=O)NCCC(=O)NCCO)cc1N(C)S(C)(=O)=O,i
COc1ccccc1NC(=O)c1nnn(-c2ccccc2)c1C,i
Cc1cn2c3c(=O)[nH]c(=O)n(C)c3nc2n1C(C(=O)O)C(C)C (centres undefined),i
CCc1[nH]nc(S(=O)(=O)N2CCN(CC(=O)N3CCCCC3)CC2)c1C(=O)OC,i
Cc1cc(=O)n2c(CCNC(=O)c3c(F)cccc3F)csc2n1,i
COc1cc(/C=C/C(=O)NCc2cc(-c3ccco3)n(C)n2)cc(OC)c1OC,i
O=C1c2oc3ccccc3c(=O)c2C(c2ccc([N+](=O)[O-])cc2)N1CCN1CCOCC1 (centres undefined),i
O=S(=O)(c1c(F)cccc1F)N1CCC(Oc2ncccc2Cl)CC1,i

# Following part:
SMILES,GIRK2 act
C=C(C)Cn1c(N2CCNCC2)nc2c1c(=O)n(C)c(=O)n2C,i
CC1(C)Cc2cccc(OCC(=O)N3CCC(S(C)(=O)=O)CC3)c2O1,i
COc1ccc(/C=C/C(=O)NC(C)c2ccccc2)cc1Br (centres undefined),i
Cn1c(=O)n(CC(N)=O)c(=O)c2c1nc1n(-c3ccc(Cl)cc3)c(-c3ccccc3)cn21,i
CCC(Oc1ccc(C)cc1)C(=O)Nc1ccc(S(N)(=O)=O)cc1 (centres undefined),i
COc1ccc(Oc2c(C(F)(F)F)oc3c4c(ccc3c2=O)OCN(Cc2cccnc2)C4)cc1,i
COc1ccc(NC(=O)NNC(=O)c2ccncc2)cc1,i
Cc1nccn1CC1CCN(C(=O)c2cccs2)CC1,i
CS(=O)(=O)c1ccc2nc(NC(=O)c3coc(NC(=O)C4CC4)n3)sc2c1,i
O=C(/C=C/c1ccc(O)c(O)c1)OC1C[C@](O)(C(=O)O)C[C@@H](O)[C@H]1O (some centres undefined),i
Cc1cc(Cl)cc2sc(N(Cc3cccnc3)C(=O)c3cccc(N4C(=O)CCC4=O)c3)nc12,i
CONC(=O)CN(C)c1nc2c(C)ccc(C)c2s1,i
COc1ccc(-c2ccc(N3CCN(C(=O)CSC4CCCC4)CC3)nn2)cc1,i
OC(COC12CC3CC(CC(C3)C1)C2)CSc1ccccn1 (centres undefined),i
C/C(Cl)=C/Cn1c(SCc2ccc(C)cc2)nc2c1c(=O)[nH]c(=O)n2C,i
CCCNC(=O)CCCCn1c(=O)c2ccccc2n(CC(=O)Nc2ccc3c(c2)OCCO3)c1=O,i
Cc1csc(SCC2CCN(C(=O)c3cc(=O)c4ccccc4o3)CC2)n1,i
COc1ccc(/C=C/C(=O)Nc2ccc3cn[nH]c3c2)cc1OC,i
CSc1ccc(N2Cc3cc(Cl)ccc3OCC2=O)cc1,i
Cc1ccc(C)c(NC(=O)CSc2cc(-c3ccccn3)nc(C)n2)c1,i
Cc1ccc(C)c2sc(N(CCCn3ccnc3)C(=O)/C=C/c3cccs3)nc12,i
Cc1cc(C(=O)N2CCN(c3ccc(-c4noc(C5CC5)n4)cn3)CC2)c(C)o1,i
CC(C)=CCc1cc2c(cc1O)O[C@H]1c3ccc(O)cc3OC[C@@H]21,i
Cc1cn2c3c(=O)n(Cc4ccc(F)cc4)c(=O)n(C)c3nc2n1CCCN1CCOCC1,i
CN(C)c1cccc(C(=O)NCCn2nc(C(F)(F)F)n(C)c2=O)c1,i
CS(=O)(=O)c1ccc(Nc2nc(C(=O)NCC3CCCCC3)cs2)cc1,i
COc1ccccc1-c1coc2cc(OCc3ccccc3F)ccc2c1=O,i
Cc1ccc(N2CCN(S(=O)(=O)c3ccc(C)c(C)c3C)CC2)c(C)c1,i
O=C(CCS(=O)(=O)c1ccccc1)Nc1ccc(-n2nnc(C(=O)NC3CC3)n2)cc1,i
COc1ccc(C(O)=C2C(=O)C(=O)N(Cc3cccnc3)C2c2ccco2)cc1OC (centres undefined),i
CCOc1ccccc1N(Cc1nc(-c2ccccc2)oc1C)S(=O)(=O)c1cccs1,i
CCC(=O)Nc1ccc2c(c1)c(=O)n(-c1ccccc1)n2CC(=O)Nc1ccc(OC)cc1,i
O=C(c1ccc(Br)s1)N1CC(Oc2nc3ccccc3s2)C1,i
CN(C)C(CNC(=O)c1cccn(C)c1=O)c1cn(C)c2ccccc12 (centres undefined),i
O=C(NCC(Cc1cccc(F)c1)N1CCCC1=O)c1cccs1 (centres undefined),i
CSc1ncccc1C(=O)NCC(O)c1ccc2c(c1)CCO2 (centres undefined),i
O=C(Cc1noc2ccccc12)N1CCN(C(=O)c2cnn3ccccc23)CC1,i
COc1ccccc1OCC(=O)NCCc1nc(C2CC2)cc(C(F)(F)F)n1,i
COc1cc(NC(=O)c2ccc(=O)n(C)n2)cc(OC)c1,i
O=C(Cn1nc2c(SC3CCCCC3)nccn2c1=O)NCc1ccc(Cl)cc1,i

# Reformatted: 2 of the compounds above.
GIRK2 act	smiles
i	O=C(NCC(Cc1cccc(F)c1)N1CCCC1=O)c1cccs1 (centres undefined)
i	CSc1ncccc1C(=O)NCC(O)c1ccc2c(c1)CCO2 (centres undefined)

# Further results
SMILES,GIRK2 act
Cn1c(=O)c(Cc2ccc(F)cc2F)cc2cnc(NC3CCOCC3)nc21,i
O=C(c1ccc(F)c(F)c1)N1CCN(CCn2ccnc2)CC1,i
CC1CCc2c(sc3ncn4c(=O)n(CC(=O)Nc5ccc6c(c5)CCC6)nc4c23)C1 (centres undefined),i
CCc1ccc(NC(=O)c2cc3ccccc3c(=O)s2)cc1,i
COCCCNc1c([N+](=O)[O-])c(=O)n(C)c2ccccc12,i
CCCn1c(=O)c2c(nc3n2C(C)C(C)=NN3CCOC)n(C)c1=O (centres undefined),i
Cc1cc(NC(=O)C23CC4CCC(CC(C4)C2)C3)no1,i
COc1ccc2c(=O)c3c(oc2c1)C(=O)N(CCN(C)C)C3c1ccc(C(C)(C)C)cc1 (centres undefined),i
COc1ccccc1CN1N=C(c2ccccc2F)c2cc(Cl)ccc2S1(=O)=O,i
COc1cc(C(=O)N(CCN2CCOCC2)c2nc3ccccc3s2)cc(OC)c1OC,i
O=S(=O)(Cc1ccccc1)N1CCN(CC(O)c2ccco2)CC1 (centres undefined),i
CC(C)OCCCNC(=O)c1cn(C)nc1S(=O)(=O)N1CCN(c2cccc(Cl)c2)CC1,i
O=C(CN1CCN(Cc2ccc(Cl)c(Cl)c2)CC1)c1ccco1,i
O=C(Nc1ccc(Cl)cc1-c1nc2ccccc2[nH]c1=O)c1ccccc1F,i
COC(=O)C(NC(=O)c1cccnc1Cl)C(C)C (centres undefined),i
O=C(C(c1ccccc1)n1cccc1)N1CCN(c2ccccc2F)CC1 (centres undefined),i
COC(=O)Cn1c(C2CC(=O)N(c3cccc(C)c3)C2)nc2ccccc21 (centres undefined),i
CC(C)NC(=O)Nc1ccccc1NC(=O)c1cccc(Cl)c1,i
CC(C)[C@H](N)C(=O)OCCOCn1cnc2c(=O)[nH]c(N)nc21,i
CCOc1ccc(N2C(=O)N(Cc3c(F)cccc3Cl)C3CS(=O)(=O)CC32)cc1 (centres undefined),i
NC(=O)c1cccnc1,i
Cc1nc2ccccn2c1C(=O)N(Cc1ccsc1)Cc1ccco1,i
Cc1cc(NC(=O)C23CCC(C)(C(=O)C2)C3(C)C)no1 (centres undefined),i
CCCCc1ccc(S(=O)(=O)c2cnc(SCC(N)=O)[nH]c2=O)cc1,i
O=C(NCC1CCN(C(=O)c2ccoc2)CC1)c1nc2ccccc2s1,i

# Structures listed so far with a furan ring, fused or not (13):
SMILES,GIRK2 act
COc1ccc(CC(=O)Nc2nnc(-c3cc4cccc(OC)c4o3)o2)cc1,i
COCCN(Cc1ccoc1)S(=O)(=O)c1cc(C)c(C)cc1C,i
O=C(CCCc1ccccc1)N(Cc1ccoc1)Cc1cccs1,i
O=C(Cn1nc2c(c1NC(=O)c1ccco1)CSC2)NCCc1ccccc1,i
COc1ccc(NC(=O)C(=O)NCC(C)(O)c2ccco2)cc1Cl (centres undefined),i
CC(C)C(=O)N1CCCc2ccc(NC(=O)C(=O)NCCc3ccoc3)cc21,i
COc1cc(/C=C/C(=O)NCc2cc(-c3ccco3)n(C)n2)cc(OC)c1OC,i
Cc1cc(C(=O)N2CCN(c3ccc(-c4noc(C5CC5)n4)cn3)CC2)c(C)o1,i
COc1ccc(C(O)=C2C(=O)C(=O)N(Cc3cccnc3)C2c2ccco2)cc1OC (centres undefined),i
O=S(=O)(Cc1ccccc1)N1CCN(CC(O)c2ccco2)CC1 (centres undefined),i
O=C(CN1CCN(Cc2ccc(Cl)c(Cl)c2)CC1)c1ccco1,i
Cc1nc2ccccn2c1C(=O)N(Cc1ccsc1)Cc1ccco1,i
O=C(NCC1CCN(C(=O)c2ccoc2)CC1)c1nc2ccccc2s1,i

# Bioassay records: PubChem BioAssay, Vanderbilt University
